TRPML1 blocker = inhibitors of human TRPML1 channel | TRPML1-inducible cells, Ca2+ dye fluorescence, FDSS; active compounds read low; inhibition of EC80 agonist-evoked calcium signal | 390,000 compounds, 0.02% hits | AID 624415 | activity change, negative = inhibition, % (concentration not given with the values) | Q9GZU1; in the data active means activity change below about -50%; inconclusive means about -30% to -50%; inactive means above about -30%;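 note: stimulus is agonist 54-4 at its EC80 concentration; % is set by controls: 0 for no effect and ±100 for the full control effect; the text of the record puts the active cut at -80%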
Target sequence (Q9GZU1 whole entry, looked up): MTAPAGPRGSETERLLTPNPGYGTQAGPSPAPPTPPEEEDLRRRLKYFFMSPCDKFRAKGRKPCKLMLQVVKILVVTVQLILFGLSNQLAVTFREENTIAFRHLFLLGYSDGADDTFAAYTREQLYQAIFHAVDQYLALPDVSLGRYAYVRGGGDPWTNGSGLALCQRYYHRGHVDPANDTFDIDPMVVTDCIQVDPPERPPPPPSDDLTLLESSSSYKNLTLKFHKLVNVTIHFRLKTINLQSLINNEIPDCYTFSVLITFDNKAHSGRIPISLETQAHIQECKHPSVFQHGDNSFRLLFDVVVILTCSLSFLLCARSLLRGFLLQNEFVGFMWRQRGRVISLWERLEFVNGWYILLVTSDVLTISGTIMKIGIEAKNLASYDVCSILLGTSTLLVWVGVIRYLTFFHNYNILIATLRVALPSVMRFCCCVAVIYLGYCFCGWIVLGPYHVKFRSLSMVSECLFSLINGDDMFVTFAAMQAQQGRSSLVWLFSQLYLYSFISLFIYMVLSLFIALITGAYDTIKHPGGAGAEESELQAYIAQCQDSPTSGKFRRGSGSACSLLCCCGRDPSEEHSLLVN
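TRPML1-DL cells, Tet-induced overnight (~16 h, 37 °C) at 1,500 cells/well, were loaded with Ca8 no-wash dye plus quencher for 45-90 min at room temperature. Compounds were pinned during FDSS kinetic reading; agonist 54-4 at EC80 (4 uM final) then added.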
Menin-MLL FL inh = displaces fluorescein MLL peptide from human menin; Fluorescence polarization, fluorescein-MLL peptide displacement from menin; FP activity change, % at 61.4 µM; 290,000 tested, under 10 active; inconclusive = falling polarisation curve, or a change in total fluorescence; inactive = total fluorescence flat and polarisation flat or rising; no compound was filed as active; the % refers to the polarisation; negative = inhibition;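 note: % of control where 0% means no effect; inhibitors lower the polarisation; unlabelled MLL peptide was the positive control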
ClpP mod = qHTS Assay for Activators of ClpP; AID 651965, 2013; Potency, µM (series often up to 57.5 µM), without a hit: at the highest dose activity change, negative = active; purified B. subtilis ClpP, FRET peptide cleavage, 20 min; 340,000 compounds, 1.9% hits; active = well fitted falling curve with a large enough effect; inconclusive = small, poorly fitted or top-dose-only effect; inactive = no such curve, though single readings can be large or run the other way; note: potency is the fitted concentration of half-maximal effect; the source files actives as falling curves though it sought activators and does not explain the sign; nearly all actives have a fitted effect of over 65% in size; many hits overshoot -100%
Target sequence (P80244 whole entry, looked up): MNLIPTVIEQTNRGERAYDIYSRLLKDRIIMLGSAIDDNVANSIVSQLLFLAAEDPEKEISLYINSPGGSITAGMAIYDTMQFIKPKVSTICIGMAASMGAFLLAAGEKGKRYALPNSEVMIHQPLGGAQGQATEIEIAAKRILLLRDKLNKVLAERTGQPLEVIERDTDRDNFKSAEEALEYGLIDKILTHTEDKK
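Buffer: 100 mM Tris/HCl pH8, 100 mM KCl, 0.05% low protease BSA, 2.5% glycerol, 0.01% Tween-20. ClpP 10 microg/mL final; 20 min RT; delta FRET normalized to ADEP and DMSO controls.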
TRPML1 agonist = human mucolipin-1 channel agonism | 410,000 compounds, 0.12% hits | TRPML1-expressing cells, Ca2+ dye fluorescence, FDSS; host cell line not named in the record; reference of the full effect not given here | activation, % (no concentration beside the values); in the data active = activation above about 50%; inconclusive = about 30% to 50%; inactive = below about 30%; note: 0% is about no effect; the text of the record puts the active cut at 80%
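Tetracycline-induced TRPML1-DL cells are seeded and incubated overnight before loading with a no-wash Ca2+ dye and quencher. Agonist activity is taken from the 110 s fluorescence read following compound pin-transfer on an FDSS, before EC80 54-4 challenge.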
gsp antag = antagonizes gsp, the McCune-Albright syndrome mutation; gsp-mutant cells, cAMP HTRF, 30 min; control for the full effect not named in the record; Potency, µM (series often up to 76.9 µM), for inactives: at the highest dose activity change, negative = inhibition, usual class: inhibitors; 340,000 compounds, 0.4% hits; active = falling curve of any shape with a large fitted effect; inconclusive = falling curve, mostly with a smaller effect; inactive = flat or rising curve; cell line not stated here;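 note: intracellular cAMP measured with PDE inhibitor Ro 20-1724 present during compound exposure; potency is the fitted concentration of half-maximal effect; % is set by controls: 0 for no effect and ±100 for the full control effect; nearly all actives have a fitted effect of over 65% in size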
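HTRF cAMP read-out (cAMP-d2 plus anti-cAMP antibody-K in lysis buffer, 30 min RT). Before lysis, cells are exposed to compounds with […] for 30 min at 37C in DPBS containing Ca/Mg, BSA and Tween 20.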
gsp ag = agonists of gsp mutant (McCune-Albright syndrome). gsp mutant cells, cAMP HTRF, 30 min; control for the full effect not named in the record. Potency, µM (top dose mostly 76.9 µM), for the others: at the highest dose activation (cAMP increase), hits mostly activators. 340,000 compounds, 0.13% hits. AID 624287; active = well fitted activation curve with a large enough effect; inconclusive = small, poorly fitted or top-dose-only effect, or another doubt; inactive = no such curve, though single readings can be large or run the other way; cell line not stated here;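 note: phosphodiesterase inhibitor Ro 20-1724 added with compounds to block cAMP breakdown; potency is the fitted concentration of half-maximal effect; nearly all actives have a fitted effect of over 60% in size; about a fifth of the inactives were tested at one dose only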
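Cells in DMEM/10% FBS with G418 were pretreated with compounds in DMSO plus […] (300 uM stock) for 30 min at 37C. cAMP was measured by HTRF (cAMP-d2 plus anti-cAMP antibody-K) after 30 min at room temperature.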
Active calls of the source: *; u = inconclusive; x = not tested or not shown; [ ] = dose if it differs, or a comment.

no. | compound | TRPML1 blocker | Menin-MLL FL inh | ClpP mod | TRPML1 agonist | gsp antag | gsp ag
1 | COc1cc(OC)cc(C(=O)Nc2nnc(SCC(=O)NCc3ccco3)s2)c1 | -11 | x | -0.7% | -0.3 | -21% | 26%
2 | Cc1c(/C=N\NC(=O)c2cc3ccccc3o2)c2ccccc2n1C | u | -3.6 | -1.4% | 0.5 | 6% | -80%[inhibitor]
3 | Cc1ccc(S(=O)(=O)N2CCN(C(C)C)CC2)cc1 | -4 | -5.0 | x | 0.3 | 6% | -31%[inhibitor]
4 | Cc1ccc(C(=O)Nc2ccccc2C(=O)N2CCCCC2C)cc1 (configuration not stated) | 0 | x | 0.3% | -0.3 | -19% | -1%
5 | C=CCn1c(SCc2nc3ccccc3c(=O)[nH]2)nnc1-c1cc2cc(Cl)ccc2o1 | -9 | 5.9 | 5.4% | 6.6 | -14% | -8%
6 | CC(C)N(C(=O)COC(=O)c1cccnc1Cl)c1ccccc1 | 14 | x | -2.4% | 0.2 | 3% | -1%[15.4 µM]
7 | Cc1cccc(Cc2nnc(CCC(=O)N(C)CCc3ccccc3)o2)c1 | -13 | -1.2 | x | -0.4 | 0% | -24%
8 | CN(CC(=O)Nc1cccc(F)c1)C(=O)COc1ccc2c(c1)CCC2 | -5 | x | 0.8% | -1.1 | -10% | 8%
9 | CCCCn1c(N)c(N(CCOC)C(=O)CSCC(=O)Nc2cccc(C)c2)c(=O)[nH]c1=O | 27 | x | -3.7% | 0.2 | 10% | -49%[inhibitor]
10 | Cc1cc2nc(CCN(Cc3cccnc3)C(=S)Nc3ccc(F)cc3)[nH]c2cc1C | -16 | 1.0 | -2.3% | 0.7 | -26% | -28%
11 | CCCN1CCN(S(=O)(=O)c2ccc3c(c2)CC(C)N3C(=O)C2CC2)CC1 (configuration not stated) | 10 | 0.2 | 0.5% | -0.4 | 6% | -7%
12 | O=C(NCCc1ccc(Cl)cc1)C1COc2ccccc2C1 (configuration not stated) | -19 | x | -12% | -0.8 | x | x
13 | COc1cc(OC)cc(C(=O)N[C@H](C(=O)OCC(=O)Nc2ccc(OC)c(OC)c2)C(C)C)c1 | -4 | 3.1 | -0.1% | 0.7 | -2% | 24%
14 | Cc1nn(S(=O)(=O)c2ccc(C(C)C)cc2)c(C)c1S(=O)(=O)N1CCCCCC1 | -6 | x | 1.1% | -0.5 | x | x
15 | CC(C)(C)OC(=O)NCCC(=O)N/N=C/c1cccc2nccnc12 | 24 | -2.0 | 0.5% | -0.1 | 12% | -1%[15.4 µM]
16 | CC(C)c1ccc(NC(=O)CN(Cc2ccccc2)S(C)(=O)=O)cc1 | 24 | 5.8 | -4.0% | 3.5 | -6% | 19%
17 | CCn1c(COc2ccc(=O)n(-c3ccccc3)n2)nnc1SCc1ccc(OC)cc1 | -3 | 5.9 | -0.4% | -1.0 | 3% | 9%
18 | O=C(COc1ccc(Cl)cc1Cl)NCCCn1ccnc1 | -16 | -0.9 | 0.7% | -0.6 | -5% | -11%
19 | Cc1ccc(S(=O)(=O)N2CCOCC2)cc1NC(=O)COC(=O)c1cc(=O)c2ccccc2o1 | 7 | -2.4 | -2.4% | -0.7 | 1% | 24%[15.4 µM]
20 | COC(=O)c1ccccc1S(=O)(=O)NNC(=O)c1nn(C)c(=O)c2ccccc12 | 4 | x | -5.5% | -0.4 | 7% | 40%[15.4 µM]
21 | NC(=O)c1ccsc1NC(=O)CSc1ccccc1F | 16 | 3.8 | -0.5% | 1.2 | 4% | -46%[inhibitor]
22 | CCc1ccc(-n2c(=O)c3c4c(sc3n(CC(=O)NCCCOC)c2=O)CCCC4)cc1 | 19 | x | 0.3% | -0.2 | x | x
23 | CCOc1cc(C(=O)NCCc2csc3nc(-c4ccc(C)cc4)nn23)cc(OCC)c1OCC | -17 | x | 3.6% | 1.5 | x | x
24 | Nc1nc(SCC(=O)Nc2cc(C(F)(F)F)ccc2Cl)[nH]c(=O)c1NC(=O)c1ccco1 | -4 | x | -1.0% | -0.2 | -10% | 5%
25 | NC(=O)COC(=O)c1ccccc1SCC(=O)NC1CCCCCCC1 | -14 | x | -3.5% | -0.2 | 1% | 0%

Profiles, quoted from the list. Order of values: TRPML1 blocker, Menin-MLL FL inh, ClpP mod, TRPML1 agonist, gsp antag, gsp ag
CCc1ccc(-n2c(=O)c3c4c(sc3n(CC(=O)NCCCOC)c2=O)CCCC4)cc1 is listed with 19, x, 0.3%, -0.2, x, x
Nc1nc(SCC(=O)Nc2cc(C(F)(F)F)ccc2Cl)[nH]c(=O)c1NC(=O)c1ccco1 is listed with -4, x, -1.0%, -0.2, -10%, 5%
CCOc1cc(C(=O)NCCc2csc3nc(-c4ccc(C)cc4)nn23)cc(OCC)c1OCC is listed with -17, x, 3.6%, 1.5, x, x
Cc1c(/C=N\NC(=O)c2cc3ccccc3o2)c2ccccc2n1C is listed with u, -3.6, -1.4%, 0.5, 6%, -80%[inhibitor]
O=C(COc1ccc(Cl)cc1Cl)NCCCn1ccnc1 is listed with -16, -0.9, 0.7%, -0.6, -5%, -11%

Remaining list, next part.
no. | compound | TRPML1 blocker | Menin-MLL FL inh | ClpP mod | TRPML1 agonist | gsp antag | gsp ag
26 | CCN(CC)CCCNC(=O)c1cn(C)c2ccc(S(=O)(=O)N(C)C)cc2c1=O | 7 | 1.0 | 1.2% | 0.0 | 5% | u
27 | CCN(CC)C(=O)CNc1ccc(C(F)(F)F)cc1[N+](=O)[O-] | 34 | -1.3 | 4.5% | 1.5 | 7% | 10%
28 | O=C(NCc1ccccn1)C1CCN(S(=O)(=O)c2ccc(Br)cc2)CC1 | 2 | x | u | 2.3 | 0% | u
29 | O=C(Nc1cccc(S(=O)(=O)NC2=NCCCCC2)c1)c1cc(-c2ccccc2)nc2ccccc12 | -9 | x | -13% | -0.5 | -10% | -2%
30 | Cc1cccc(NC(=O)CSc2cn(CC(=O)N3CCOCC3)c3ccccc23)c1 | 16 | x | -0.1% | -0.5 | x | x
31 | CC(C)[C@H](NS(=O)(=O)c1cccc(Cl)c1)C(=O)OCC(=O)NC(=O)CN1CCCC1=O | -13 | x | -1.9% | -1.3 | 2% | 1%
32 | CN1CCN(S(=O)(=O)c2cccc(C(=O)N3CCN(c4ccccc4)CC3)c2)CC1 | 51 | x | 0.6% | 0.5 | 14% | -52%[inhibitor]
33 | CCOC(=O)CCCNC(=O)CN1C(=O)NC(CCc2ccccc2)C1=O (configuration not stated) | -7 | 0.9 | 0.8% | 0.9 | 9% | -1%
34 | COc1ccc(C(=O)/C(C#N)=N/Nc2ccc([N+](=O)[O-])cc2)cc1 | -10 | 13 | 2.8% | 3.1 | -24% | -60%[inhibitor]
35 | CNc1cnn(-c2ccccc2)c(=O)c1Cl | -5 | 1.4 | 0.0% | -0.9 | 0% | -7%
36 | Cc1ccc(NC(=O)CN(C)C(=O)COc2cccc3cccnc23)cc1 | -7 | x | -6.1% | 1.1 | -2% | 17%
37 | C=CCOc1cccc(/C=C/c2nc3ccccc3c(=O)[nH]2)c1 | x | 2.4 | 3.4% | x | -4% | -10%
38 | CO/N=C(/COc1ccc(F)cc1)c1ccc(OC)cc1 | 4 | 0.8 | x | 2.1 | -3% | 8%[15.4 µM]
39 | CCCCC(CC)CNC(=O)CCS(=O)(=O)c1cccc2nsnc12 (configuration not stated) | 13 | -2.0 | -3.8% | 4.5 | -3% | -35%[inhibitor]
40 | CCOC(=O)N1CCN(S(=O)(=O)N2CCCC(C(=O)NCc3ccc(C)cc3)C2)CC1 (configuration not stated) | -13 | x | 0.2% | -0.6 | x | -21%
41 | CCc1cc(=O)[nH]c(SCC(=O)NCc2ccc3c(c2)OCO3)n1 | 46 | x | 3.1% | -0.9 | 10% | u
42 | CC(C)(C)c1ccc(OCC(O)CSc2ncn[nH]2)cc1 (configuration not stated) | -10 | 0.9 | -4.4% | 0.1 | -13% | 3%
43 | COc1cccc(NC(=O)CN(C)C(=O)c2cc(-c3ccccc3)nc3ccc(C)cc23)c1 | 8 | x | x | 1.6 | u | 5%[15.4 µM]
44 | CC(C)Oc1cccc(C(=O)Nc2ncn[nH]2)c1 | -1 | -0.4 | x | -0.4 | -1% | u
45 | COc1ccc(CC(=O)Nc2cccc3ccccc23)cc1OC | 3 | 3.5 | x | -0.6 | -8% | 17%[15.4 µM]
46 | O=C(Nc1ccccc1C(=O)NC(Cc1ccccc1)C(=O)NC1CCCCCC1)c1ccccc1 (configuration not stated) | 4 | 6.0 | 47% | 0.5 | -2% | -41%[inhibitor]
47 | Cn1cc(Cl)c(/C(N)=N/OC(=O)c2ccccc2C(F)(F)F)n1 | 6 | x | -0.8% | 0.1 | 5% | -4%
48 | CCOC(=O)CSc1ccc(-c2nc3cc(C)c(C)cc3[nH]2)cn1 | 28 | 2.8 | 32µM* | 0.4 | u | 23%
49 | CCOC(=O)C1CCN(C(=O)CCS(=O)(=O)c2cc3c(cc2Cl)NC(=O)CO3)CC1 | -9 | x | 1.4% | 0.9 | x | x
50 | CCOC(=O)Cn1c(C2CC(=O)N(c3ccc(C)cc3)C2)nc2ccccc21 (configuration not stated) | 10 | x | 1.5% | -0.6 | x | x

Looked up by structure from the list above:
no. | compound | TRPML1 blocker | Menin-MLL FL inh | ClpP mod | TRPML1 agonist | gsp antag | gsp ag
48 | CCOC(=O)CSc1ccc(-c2nc3cc(C)c(C)cc3[nH]2)cn1 | 28 | 2.8 | 32µM* | 0.4 | u | 23%
36 | Cc1ccc(NC(=O)CN(C)C(=O)COc2cccc3cccnc23)cc1 | -7 | x | -6.1% | 1.1 | -2% | 17%
27 | CCN(CC)C(=O)CNc1ccc(C(F)(F)F)cc1[N+](=O)[O-] | 34 | -1.3 | 4.5% | 1.5 | 7% | 10%

More records.
no. | compound | TRPML1 blocker | Menin-MLL FL inh | ClpP mod | TRPML1 agonist | gsp antag | gsp ag
51 | O=C(NCC1COc2ccccc2O1)c1cc(S(=O)(=O)N2CCOCC2)c(Cl)cc1Cl (configuration not stated) | 21 | x | x | 4.5 | -15% | -13%[15.4 µM]
52 | CC(C)N(C(=O)Cn1cc(S(=O)(=O)Cc2ccc(Br)cc2)c2ccccc21)C(C)C | -5 | x | 0.6% | 3.0 | x | x
53 | COc1ccc(OCC(=O)Nc2ccc(NC(=O)c3cccs3)c(OC)c2)cc1 | 1 | 1.1 | x | 0.5 | 5% | 5%[15.4 µM]
54 | COc1ccc(CC(=O)NN2C(=O)c3ccccc3C2=O)cc1 | 1 | -0.3 | 4.6% | 0.2 | 6% | 0%
55 | CC1CCN(c2nc3ccc(C(=O)NC(C)C)cc3s2)CC1 | -20 | x | -14% | 1.4 | x | x

Source: PubChem BioAssay (National Center for Advancing Translational Sciences (NCATS))
